Vaccinia mCherry: inhibitors of vaccinia virus infection (mCherry reporter signal). AID 720579. Potency, µM (doses to about 36.5 µM), for inactives: at the highest dose activity change, negative = inhibition, usual class: inhibitors. Vaccinia virus mCherry reporter infection, fluorescence; about a quarter of the inactives have no number. actives 0.63% (n = 310,000); active = well fitted inhibition curve with a large enough effect; inconclusive = small, poorly fitted or top-dose-only effect; inactive = no such curve, though single readings can be large or run the other way; tested in A549 cells; further: nearly all actives have a fitted effect of over 35% in size; inactives centre near -10
VACV Venus inh: vaccinia inhibition (Venus reporter); actives 0.46% (n = 330,000); Potency, µM (top dose mostly 36.5 µM), without a hit: top-dose activity change, negative = inhibition, most hits filed as inhibitors; Vaccinia virus Venus reporter expression, fluorescence; active means well fitted inhibition curve with a large enough effect; inconclusive means small, poorly fitted or top-dose-only effect; inactive means no such curve, though single readings can be large or run the other way; tested in A549 cells; further: nearly all actives have a fitted effect of over 30% in size; inactives centre near -10
* = called active by the depositor; & = joins results of further samples; [ ] = another dose, or the depositor's remark. On the % scale 0 is the no-effect control and ±100 the full control effect; potency means the concentration at half of the fitted maximal effect.

`Cc1c(C(N)=O)nnn1-c1ccc(Br)cc1` gave Vaccinia mCherry -7% and VACV Venus inh 0%.
Screening Cc1ccc(/C=N/N2CCN(c3ccccc3)CC2)cc1 returned Vaccinia mCherry -11% and VACV Venus inh 2%.
NS(=O)(=O)c1ccc(NC(=O)CN(C(=O)C(F)(F)F)C2CCCC2)cc1 was read as Vaccinia mCherry -14% and VACV Venus inh -8%.
For COCCn1ccc2c(OCC(=O)NCCc3ccccc3)cccc2c1=O the results were Vaccinia mCherry -13% and VACV Venus inh -14%.
Screening N#Cc1nc(COc2ccccc2Cl)oc1NCc1ccc(F)cc1 returned Vaccinia mCherry -1% and VACV Venus inh -14%.
`COc1cccc2cc(-c3nc4sc5c(c4c(=O)[nH]3)CCC(C(C)(C)C)C5)c(=O)oc12` (configuration not stated) gave Vaccinia mCherry -11% and VACV Venus inh 160%[activator].
`COc1cc(NC(=O)Cn2ccc3ccccc3c2=O)cc(OC)c1OC` gave Vaccinia mCherry 0% and VACV Venus inh 0%.
CCC(Oc1ccccc1)C(=O)Nc1cc(-c2cccc(C)c2)nn1-c1ccccc1 (configuration not stated) was read as Vaccinia mCherry -7% and VACV Venus inh -15%.
O=C1CSC(=S)N1N=Cc1ccccc1O was read as Vaccinia mCherry 17% and VACV Venus inh 87%[activator].
For O=C(NCCCn1ccnc1)C(=O)NCC1OCCN1S(=O)(=O)c1ccc(F)cc1 (configuration not stated) the results were Vaccinia mCherry -4% and VACV Venus inh -21%.
`CC1(C)CC(=NOC(=O)c2ccccc2)CC(C)(C)N1O` gave Vaccinia mCherry -10% and VACV Venus inh -21%.
Screening Cn1c(CCCNC(=O)c2ccco2)nc2ccccc21 returned Vaccinia mCherry inactive and VACV Venus inh -6%.
`CCOc1ccccc1N(CC)C(=O)Cn1ncc2c(=O)oc3ccccc3c21` gave Vaccinia mCherry inactive and VACV Venus inh 0%.
`O=C(N/N=C/c1ccc(N2CCOCC2)o1)c1cccc([N+](=O)[O-])c1` gave Vaccinia mCherry inactive and VACV Venus inh -19%.
For Cc1ccc(OCC(=O)N2CCN(Cc3ccc4c(c3)OCO4)CC2)cc1 the results were Vaccinia mCherry -5% and VACV Venus inh -6%.
For c1ccc(NCCSc2nc3ccccc3s2)cc1 the results were Vaccinia mCherry inactive and VACV Venus inh -10%.
`N#Cc1c(Nc2ccccc2)sc(C(=O)c2ccccc2)c1N` gave VACV Venus inh -9%.
`COC(=O)c1cc(Br)ccc1-c1ccc(/C=N/n2nnnc2N)o1` gave Vaccinia mCherry -23% and VACV Venus inh -27%.
For COc1ccc2oc(-c3ccc(NC(=O)c4ccc(Cl)cc4Cl)cc3)nc2c1 the results were Vaccinia mCherry -7% and VACV Venus inh -9%.
Screening O=C(NCCc1ccccc1C(F)(F)F)c1cc(COc2ccccc2)on1 returned Vaccinia mCherry -4% and VACV Venus inh -7%.
c1ccc(N=Nc2ccc(C3=NCCO3)cc2)cc1 was read as Vaccinia mCherry inconclusive and VACV Venus inh -6%.
Screening CC(C)NC(=O)c1ccc(CSc2nc3ccncc3n2Cc2cccc(F)c2)cc1 returned Vaccinia mCherry -5% and VACV Venus inh -2%.
COc1ccccc1N1CCN(C(=O)c2sc3nc(C)nc(N4CCN(c5ccccn5)CC4)c3c2C)CC1 was read as Vaccinia mCherry inconclusive and VACV Venus inh inconclusive.
`CCC1CN(C(=O)N2CCC(C(=O)NCCc3cc(OC)ccc3OC)CC2)c2ccccc2O1` (configuration not stated) gave Vaccinia mCherry 5% and VACV Venus inh -11%.

Overlap with the part before: 5 compounds, then new ones.
Screening O=C(NCCc1ccccc1C(F)(F)F)c1cc(COc2ccccc2)on1 returned Vaccinia mCherry -4% and VACV Venus inh -7%.
c1ccc(N=Nc2ccc(C3=NCCO3)cc2)cc1 was read as Vaccinia mCherry inconclusive and VACV Venus inh -6%.
Screening CC(C)NC(=O)c1ccc(CSc2nc3ccncc3n2Cc2cccc(F)c2)cc1 returned Vaccinia mCherry -5% and VACV Venus inh -2%.
COc1ccccc1N1CCN(C(=O)c2sc3nc(C)nc(N4CCN(c5ccccn5)CC4)c3c2C)CC1 was read as Vaccinia mCherry inconclusive and VACV Venus inh inconclusive.
`CCC1CN(C(=O)N2CCC(C(=O)NCCc3cc(OC)ccc3OC)CC2)c2ccccc2O1` (configuration not stated) gave Vaccinia mCherry 5% and VACV Venus inh -11%.
O=Cc1c(OCc2ccccc2)ccc2ccccc12 was read as Vaccinia mCherry -2% and VACV Venus inh 12%.
Screening Cc1c(OC(C)C(=O)N2C[C@H]3C[C@@H](C2)c2cccc(=O)n2C3)ccc2c3c(c(=O)oc12)CCC3 (some centres not stated) returned Vaccinia mCherry -9% and VACV Venus inh -14%.
CN(C)C(CNC(=O)c1ccccc1OCc1ccc(Cl)cc1)c1ccco1 (configuration not stated) was read as Vaccinia mCherry inconclusive and VACV Venus inh -15%.
COc1ccc2cc3[n+](cc2c1OC)CCc1cc2c(cc1-3)OCO2 was read as Vaccinia mCherry -17%&-5%&-20% and VACV Venus inh inconclusive.
Cn1c(Oc2ccc(F)cc2)c(C=O)c2ccccc21 was read as Vaccinia mCherry inactive and VACV Venus inh -15%.
`CCOc1ccccc1NC(=O)CCn1cnnn1` gave Vaccinia mCherry -2% and VACV Venus inh -8%.
COc1cccc(CNC(=O)c2c(OC)cc(=O)n3c2CCN(C(=O)c2csc(C)n2)CC3)c1 was read as Vaccinia mCherry -15% and VACV Venus inh -10%.
Screening CNS(=O)(=O)c1cn(CC(=O)Nc2ccc(F)cc2F)cc1S(=O)(=O)NC returned Vaccinia mCherry -13% and VACV Venus inh -5%.
`O=C(Nc1ccc(Cl)cc1)Nc1nnc(CSCc2ccccc2)s1` gave Vaccinia mCherry inactive and VACV Venus inh -12%.
Screening CCCCN(C)C(=S)Nc1ccc(Oc2ccccc2)cc1 returned Vaccinia mCherry -27% and VACV Venus inh -14%.
Screening CC(NC(=O)c1cc(F)ccc1F)c1nnc2n1CCN(Cc1ccco1)CC2 (configuration not stated) returned Vaccinia mCherry -2% and VACV Venus inh 0%.
`CC(=O)c1sc2c(c1OC(=O)c1ccc(Cl)cc1)c(=O)n(-c1ccccc1)c(=S)n2-c1ccccc1` gave Vaccinia mCherry inactive and VACV Venus inh -5%.

Filtered by structure: the compounds so far containing bromine
`Cc1c(C(N)=O)nnn1-c1ccc(Br)cc1` gave Vaccinia mCherry -7% and VACV Venus inh 0%.
`COC(=O)c1cc(Br)ccc1-c1ccc(/C=N/n2nnnc2N)o1` gave Vaccinia mCherry -23% and VACV Venus inh -27%.

(listing goes on)
For CCCNC(=O)C(Cc1ccc(OC)cc1)NC(=O)c1ccc(Cl)cc1 (configuration not stated) the results were Vaccinia mCherry -1% and VACV Venus inh -14%.
CCOc1cc(-c2noc(N)c2C#N)cc(OCC)c1OCC was read as Vaccinia mCherry -25% and VACV Venus inh -24%.
`O=C(Nc1ccc(F)cc1F)c1cc(-c2ccco2)nc2ccccc12` gave Vaccinia mCherry -16% and VACV Venus inh -9%.
CCCN(c1ccccc1F)S(=O)(=O)c1cc(-c2cc(C)no2)ccc1C was read as Vaccinia mCherry -8% and VACV Venus inh -10%.
Cc1cc2c(Nc3ccccc3O)ncnc2s1 was read as Vaccinia mCherry inconclusive and VACV Venus inh -16%.
`CC(C)[C@@H](COc1ccccc1)N1CCN(Cc2ccccc2)CCC1=O` gave Vaccinia mCherry -17% and VACV Venus inh -6%&-2%.
Screening CCc1nc2c(OCC(=O)C(C)(C)C)cccn2c1N(C=O)Cc1ccccc1 returned Vaccinia mCherry inactive and VACV Venus inh -12%.
Screening Oc1c(C(c2ccc(Cl)cc2Cl)N2CCCC2)sc2nc(-c3ccco3)nn12 (configuration not stated) returned Vaccinia mCherry -19% and VACV Venus inh -15%.
Screening COC(=O)c1ccccc1NC(=O)CSc1nc(O)cc(=O)n1C1CCCC1 returned Vaccinia mCherry 2% and VACV Venus inh 6%.
Screening CCn1cc(C(=O)N(C)Cc2ccccc2)c(=O)c2cc(S(=O)(=O)N3CCCCC3)ccc21 returned Vaccinia mCherry inactive and VACV Venus inh 3%.
Screening Cc1nnc(Nc2ccc(F)cc2)c2ccccc12 returned Vaccinia mCherry -14% and VACV Venus inh -11%.
For COc1ccc(-c2[nH]ncc2CNC(C)CCn2cccn2)cc1F (configuration not stated) the results were Vaccinia mCherry inactive and VACV Venus inh -9%.
CCS(=O)(=O)Nc1cccc(C2=NN(C(=O)c3ccco3)C(c3ccco3)C2)c1 (configuration not stated) was read as Vaccinia mCherry inconclusive and VACV Venus inh -23%.
Screening Nc1nnc(CC(=O)N/N=C/c2ccc(-c3cccc(C(=O)O)c3)o2)s1 returned Vaccinia mCherry -7% and VACV Venus inh 2%.
CCS(=O)(=O)n1nc(-c2cccnc2)nc1NCc1ccc(F)cc1 was read as Vaccinia mCherry inconclusive and VACV Venus inh inconclusive.
`Cc1ccc(NC(=O)c2c([N+](=O)[O-])c(C(C)(C)C)nn2C)c(C)c1` gave Vaccinia mCherry -18% and VACV Venus inh -12%.
Screening CSc1nsc(SCC(=O)Nc2cccc(NC(C)=O)c2)n1 returned Vaccinia mCherry inconclusive and VACV Venus inh inconclusive.
For CCN=C1SC(C(=O)NCCc2ccccc2)CC(=O)N1CC (configuration not stated) the results were Vaccinia mCherry -14% and VACV Venus inh -15%.
For O=C(Cc1ccccc1)Nc1nc(-c2cccs2)cs1 the results were Vaccinia mCherry -11% and VACV Venus inh -21%.
Cc1ccc(NC(=O)C2CCCN(S(=O)(=O)c3ccc4[nH]c(=O)ccc4c3)C2)nc1 (configuration not stated) was read as Vaccinia mCherry inactive and VACV Venus inh -7%.
Screening COC(=O)C1=C(C(=O)OC)[C@]2([C@@H]3C/C=C\CN[C@@H](Cc4ccccc4)C(=O)N3Cc3ccccc3)C=C[C@H]1O2 returned Vaccinia mCherry -9% and VACV Venus inh -19%.
`CC(=NNC(=O)c1ccncc1)c1ccc(Cl)cc1Cl` gave Vaccinia mCherry inactive and VACV Venus inh -6%.
`O=C1[C@@H]2[C@H](C(=O)N1CC(O)COCc1ccccc1)C1C=C[C@H]2C1` (some centres not stated) gave Vaccinia mCherry inactive and VACV Venus inh -11%.
For CCCNC(=O)N1[C@H](c2cccs2)[C@@H](C)C(=O)[C@@H](C)[C@@H]1c1cccs1 the results were Vaccinia mCherry -11% and VACV Venus inh -2%.
For O=c1c2sc3ccccc3c2n(Cc2ccccc2F)c(=O)n1-c1ccccc1Cl the results were Vaccinia mCherry -11% and VACV Venus inh -19%.
`COc1ccc(Cl)cc1NC(=O)c1cc2ccc3ccc(C)[nH]c3c2n1` gave Vaccinia mCherry -26% and VACV Venus inh -24%.
For Cc1ccc(C(=O)CSc2nnc(Cn3nnc4ccccc43)n2C)cc1 the results were Vaccinia mCherry -6% and VACV Venus inh -12%.
CCOc1ccc(NC(=O)C(=O)NCCc2sc(-c3ccc(C)cc3)nc2C)cc1 was read as Vaccinia mCherry 0% and VACV Venus inh 2%.
For CCCCOc1ccc(C(=O)N2CCNC(=O)C2)cc1 the results were Vaccinia mCherry -15% and VACV Venus inh 1%.
For Cc1[nH]nc2ncc(C(=O)c3cc(Cl)cc(Cl)c3O)cc12 the results were Vaccinia mCherry -9% and VACV Venus inh -2%.
For c1ccc(-c2csc(Nc3ncccn3)n2)cc1 the results were Vaccinia mCherry -17% and VACV Venus inh -3%.
`Cc1cc(C)cc(C(=O)NCC(=O)OCC(=O)NC2CC2)c1` gave Vaccinia mCherry inactive and VACV Venus inh -3%.
For CCOc1ccc(C(=O)Nc2ccc(S(=O)(=O)NCC3CCCO3)cc2)cc1OCC (configuration not stated) the results were Vaccinia mCherry -8% and VACV Venus inh -19%.
`CC(C)(C)OC(=O)Nc1ccccc1-n1nnnc1C(C(=O)c1ccc(F)cc1)N1CCOCC1` (configuration not stated) gave Vaccinia mCherry inconclusive and VACV Venus inh 1%.
Screening Cc1ccc(C)c(N2CCN(C(=O)CCc3nc(-c4ccc(Br)cc4)no3)CC2)c1 returned Vaccinia mCherry -22% and VACV Venus inh -26%.
COC(=O)CNC(c1ccccc1)c1cc(Cl)ccc1NC(=O)c1cccc(Cl)c1 (configuration not stated) was read as Vaccinia mCherry -14% and VACV Venus inh -4%.
Screening COc1ccc(-c2nnc(SCC(=O)N3CCCC3)o2)cc1 returned Vaccinia mCherry 7% and VACV Venus inh -2%.
For Cc1nnc(SCc2ccccc2)nc1/C=C/NOCc1ccc(Cl)cc1Cl the results were VACV Venus inh 11%.
For NC(=O)c1ccc(N2CCN(c3ccccc3O)CC2)c([N+](=O)[O-])c1 the results were Vaccinia mCherry -4% and VACV Venus inh -4%.
`Cc1nc(C(=O)NNC(=O)Nc2ccc(Cl)cc2)cs1` gave Vaccinia mCherry 0% and VACV Venus inh -15%.
CCCCCCn1c(=O)n2n(c1=O)[C@@H]1CN(S(=O)(=O)c3ccc(C)cc3)C[C@]1(O)[C@@H](OC(=O)Nc1c(C)noc1C)C2 was read as Vaccinia mCherry inactive and VACV Venus inh -28%.
COC(=O)[C@@]1(Sc2ccc(C)cc2)CC(=O)N(C(=O)CCc2ccccc2)[C@@H]1c1ccccc1 was read as Vaccinia mCherry 37%[activator] and VACV Venus inh 11%.
For Cc1nnc(NC(=O)CSc2nc(C(C)C)nc3sc(C)c(C)c23)s1 the results were Vaccinia mCherry -17% and VACV Venus inh -9%.
For N#Cc1ccc(CSc2nnc3[nH]c(=O)cc(N)n23)cc1 the results were Vaccinia mCherry -4% and VACV Venus inh -16%.
`COc1ccc2c(c1)OC/C(=C/c1ccc(OC)c(OC)c1)C2=O` gave Vaccinia mCherry -13% and VACV Venus inh inconclusive.
`O=C(NCCN1CCCCC1)c1ccc2c(c1)OCCO2` gave VACV Venus inh -9%.

From PubChem BioAssay

Rows were taken by chance. Share with any hit: about 0.87%.
